# Bioassay records from PubChem.
# Sa RN4220 lethal: S. aureus RN4220 growth inhibition; OD600, 16 h; inhibition, % (concentration not given with the values); 0.33% of 330,000 active;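 active means z-score of -3 or lower and OD600 up to 0.18 on both plates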;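 further: plate controls were untreated cells for no effect and reference antibiotic for full effect; stock transfer was 100 nL into about 80 µL; one replicate is shown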
# PrP UTR inh: inhibition of PrP 5' UTR reporter expression. cell-based PrP 5' UTR mRNA reporter, plate reader. 0.35% of 340,000 active. AID 488862. inhibition, % (concentration not given with the values);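 active means every replicate at 50% or more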;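 further: 0 = median of the neutral control wells; tested in H4 reporter cells; numbers are from one replicate; inactives centre near -14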
# BJeLR lethal: BJeLR cell viability loss; BJeLR (HRASV12) viability, CellTiter-Glo ATP luminescence, 48 h; reference of the scale not given here; 0.17% of 300,000 active; inhibition, % (no concentration beside the values);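 active means replicate mean above 50%; inconclusive means above 50% but judged a plate artefact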;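 further: 50 nL library stock added to about 25 µL; numbers are from one replicate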
# Bead autofluor: flagged as autofluorescent in microsphere protease counterscreen | AID 624483 | 3.1% of 360,000 active | compound autofluorescence counterscreen, microsphere flow cytometry; active compounds read high | fluorescence intensity (test concentration not listed);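 active means at least 3 SD above the mean of all compounds, about 16000 in these data; inconclusive means too few beads counted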;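 further: 100 nL of 1 mM stock went into each well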
# Mtb hypoxia inh: reduces hypoxia-regulated biosensor signal in M. tuberculosis; AID 1159583; M. tuberculosis hypoxia-regulated fluorescent reporter, fluorescence; 0.1% of 300,000 active; fluorescence inhibition, % (test concentration not listed);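 active means 35 to 45% if threefold the growth effect, above 45% if 1.5-fold the growth effect; inactive means the rest, general growth blockers included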;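 further: wells of about 50 µL received 100 nL stock; 0% = vehicle wells and 100% = reference inhibitor wells; whole bacteria with a GFP reporter of the hypoxia response; strong numbers were not always called active; many hits fall short of the cut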
# Sa ugtP lethal: growth inhibition of S. aureus ugtP deletion strain; S. aureus RN4220 ugtP deletion, OD600 growth, 16 h; some inactives read as strong as hits; 0.54% of 330,000 active; growth inhibition, % (concentration not given with the values); AID 1259309;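 active means z-score under -3 and OD600 up to 0.15 on both plates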;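 further: plate controls were untreated wells for no effect and antibiotic for full effect; wells of about 80 µL received 100 nL stock; the first replicate is given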
# Mtb hypoxia inh growth: also measured in Mtb hypoxia inh; calls as there; growth inhibition, %; measured here: M. tuberculosis growth (absorbance);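 0% = vehicle and 100% = reference antibiotic; read after six days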
# * marks the source's active call; other numbers are inactive results; ? = inconclusive; · = no result given. Outcome played no part in choosing rows; overall some 4% were active at least once.
structure	Sa RN4220 lethal	PrP UTR inh	BJeLR lethal	Bead autofluor	Mtb hypoxia inh	Mtb hypoxia inh growth	Sa ugtP lethal
COc1ccccc1C(=O)O/N=C(/c1ccncc1)c1ccc([N+](=O)[O-])cc1	·	-3.3	0.9	2245	·	·	·
O=C(NCCNc1ccc([N+](=O)[O-])cc1)c1cccc2c(Br)cccc12	-0.8	3.3	-1.1	2792	-1.4	-4.0	-11.3
CCOC(Cn1c(SCc2cc(C(C)=O)ccc2OC)nc2ccccc2c1=O)OCC	-3.5	-10.5	4.6	8959	-10.6	-1.7	5.0
NC(=O)CCn1c(C(=O)c2cccc([N+](=O)[O-])c2)c2ccccc2[n+]1[O-]	6.1	-7.6	-5.2	3707	2.7	2.2	1.7
Cc1cc(NC(=O)Nc2cccc3ccccc23)no1	3.6	-34.6	-1.8	3638	·	·	20.3
O=C(Cn1cc(SCc2ccc(Cl)cc2)c2ccccc21)N1CCOCC1	11.5	-9.6	7.7	7609	0.6	-4.9	7.6
COc1cc(C(=O)Sc2ccc(C)cc2)cc(OC)c1OC	2.6	-36.2	3.1	2398	·	·	19.5
C/C(=N/OC(=O)c1ccc(C)cc1)c1cccs1	·	-15.3	5.4	4875	·	·	·
CCCOc1ccc(C(=O)Nc2cccnc2)cc1	1.8	-58.1	-1.5	3408	1.5	2.5	5.1
COc1cc(C=Nn2c(-c3ccccc3)n[nH]c2=S)cc(OC)c1OC	3.3	·	·	·	5.4	-6.4	1.4
CC(C)N(Cc1ccccc1)C(=O)COC(=O)c1ccc(S(=O)(=O)N2CCOCC2)cc1	2.7	-1.5	·	3296	1.9	5.2	-2.2
Cc1nn(-c2cc(C)c3ccccc3n2)c2c1C1C(C2)C1(C)C (configuration not stated)	-2.7	-31.7	-3.5	10808	-1.7	1.8	82.7*
COc1ccc(OC)c(Nc2ccc(Nc3cc(OC)ccc3OC)nn2)c1	0.7	-15.2	12.1	7811	1.5	12.0	0.3
CCCCCCN1CC(=O)N2Cc3[nH]c4ccccc4c3C[C@H]2C1=O	0.8	-0.7	5.9	3524	9.1	14.2	1.7
CSc1nc(=O)n2cccc(C)c2n1	3.6	1.3	0.4	21767*	-5.9	6.4	-0.2
Cc1nn(-c2ccccc2)c(-c2ccccc2[N+](=O)[O-])c1C(=O)O	5.5	-22.3	-6.0	·	3.1	1.5	5.7
Cc1c(Cl)cccc1NC(=O)CC1Sc2ccccc2NC1=O (configuration not stated)	0.9	-2.9	12.6	3742	-0.6	6.6	-1.3
NC(=O)CSc1ccc(Br)cc1	4.7	-5.7	3.0	3931	-85.9	-26.3	0.2
Cc1onc(-c2ccccc2)c1C(=O)NN=Cc1ccccc1OC(C)C	1.9	·	·	·	-1.4	6.3	6.1
Cn1c(=O)c2c(nc(NCCNC(=O)c3ccco3)n2Cc2ccccc2Cl)n(C)c1=O	4.6	-12.5	-0.6	7115	9.6	4.1	6.9
O=[N+]([O-])c1cc(C(F)(F)F)ccc1Cl	5.6	-8.6	·	5983	8.8	9.8	1.4
CCOc1cccc(/C=N/Nc2ccc(S(=O)(=O)N(CC)CC)cn2)c1O	·	29.2	51.6*	2384	·	·	·
CN(C)CCOCCP(=O)(c1ccccc1)c1ccccc1	5.2	-12.1	-15.2	23350*	-0.6	2.0	6.2
CC(=O)N1CCN=C1SCc1ccc(Cl)cc1	-3.4	-2.2	0.4	4021	·	·	5.9
CCCn1c(-c2cccs2)nc2c1c(=O)[nH]c(=O)n2Cc1ccccc1	7.1	-42.3	-2.2	4177	-6.3	-0.5	-4.3
Cc1cc2c(c(=O)n1Cc1ccco1)C(c1cccnc1)C(C#N)=C(N)O2 (configuration not stated)	4.4	5.2	-1.6	4220	12.8	12.2	12.1
CCC(OC(=O)c1ccco1)C(=O)NCc1ccco1 (configuration not stated)	3.1	-19.5	0.9	9083	5.3	4.7	-2.9
C=CCOc1cc(OC)c(OC)c(OC)c1	6.0	-23.2	-8.2	4364	13.3	1.5	3.5
O=c1[nH]ncc(N/N=C/c2ccccc2)c1Cl	·	-29.3	-20.0	15870	·	·	·
OCC[C@H]1NCc2cc(CO)cc(-c3ccccc3)c21	3.4	-17.2	·	3405	-2.3	5.7	-4.3
Cc1c(C(=O)NC(=S)Nc2cccnc2)cccc1[N+](=O)[O-]	0.4	-4.6	1.3	4934	6.1	-8.7	6.6
COc1ccc(Cc2noc(CN3CCN(c4ccc(Cl)cn4)CC3)n2)cc1OC	3.1	-22.6	12.2	4058	11.2	5.2	4.8
Cc1nc2c(C#N)cnn2c2c1CCNN2C	0.9	-22.3	0.4	4473	7.2	-2.0	16.9
Cn1c(SCC(=O)c2cccs2)nnc1-c1ccco1	6.9	-24.3	1.1	8030	-3.5	5.1	-6.4
CCCCn1c(SCC(=O)Nc2cc(C)on2)nnc1-c1ccncc1	1.4	-28.4	3.8	3891	4.6	-12.8	10.3
Cc1cccc2cc(-c3nc4c(C)cccn4c3NCc3ccco3)c(=O)[nH]c12	4.5	-15.0	9.7	2836	-6.5	-0.5	-6.8
CSc1ccccc1NC(=O)CN(c1cccc(C)c1)S(C)(=O)=O	0.8	-63.3	1.2	23782*	-3.1	7.8	-1.6
Cc1ccc(NC(=O)CCNS(=O)(=O)c2ccc(Br)s2)cc1	4.1	5.3	-4.9	4767	3.4	-1.8	-0.5
CCOC(=O)C1=C(COC(=O)CCc2ccc(CC)cc2)NC(=O)NC1C (configuration not stated)	11.7	-12.1	·	3703	5.6	9.0	7.6
CCCCn1c(N)c(N(CC(C)C)C(=O)COC(=O)Cc2c(C)nc3ccccc3c2C)c(=O)[nH]c1=O	0.1	-14.4	0.9	5502	-9.3	-5.3	0.6
Cc1ccc(C(CC(=O)NCc2ccco2)c2ccccc2)c(O)c1 (configuration not stated)	-1.0	-16.8	-4.2	11183	-8.4	11.0	-9.8
C=CCSc1nnc(-c2ccc([N+](=O)[O-])cc2)o1	2.2	-53.6	5.9	2149	·	·	-7.0
N#Cc1cc(S(=O)(=O)c2ccc(Cl)cc2)c(N)[nH]c1=O	3.6	-1.8	1.5	3327	9.0	2.3	6.6
C/C(=N\NC(=O)c1ccc(CSc2nncn2C)cc1)c1cccs1	·	-25.7	-7.0	2617	·	·	·
O=C(Cn1nc2ccccc2n1)NN=Cc1cc([N+](=O)[O-])ccc1O	95.4*	·	·	·	5.8	7.8	87.7*
Cc1cccc(C(=O)Oc2ccc(/C=N/NC(=O)c3ccc(O)cc3)cc2)c1	·	-12.9	1.0	5934	·	·	·
COc1ccc(CCNC(=O)c2ccccc2SC)cc1	1.3	-36.0	7.4	4512	18.5	1.5	0.6
CC(C)(C)n1nnnc1C(c1cc2cc3c(cc2[nH]c1=O)OCCO3)N1CCSCC1 (configuration not stated)	4.6	-23.7	4.4	9061	4.0	6.5	-6.7
O=C(Cc1ccccc1Cl)NN=Cc1cccnc1	0.6	·	·	·	-1.5	-2.4	7.4
Clc1ccc(-c2nnc(-c3ccc(Br)cc3)c(N3CCSCC3)n2)cc1	3.0	-9.0	-3.8	3924	11.8	12.0	0.4

# Continuation:
structure	Sa RN4220 lethal	PrP UTR inh	BJeLR lethal	Bead autofluor	Mtb hypoxia inh	Mtb hypoxia inh growth	Sa ugtP lethal
COC(=O)c1ccc(NC(C(=O)OC)C(C)C)c([N+](=O)[O-])c1 (configuration not stated)	·	-38.4	8.1	2620	·	·	·
COc1cc(C=NNC(=O)c2cccc(Cl)c2)ccc1Oc1ccc([N+](=O)[O-])cn1	-9.8	·	·	·	-1.1	-3.5	-2.8
O=C(Nc1ncc([N+](=O)[O-])s1)c1ccco1	20.4	-39.5	7.8	?	16.3	14.1	21.3
COC(=O)c1cccc(NC(=O)c2onc3c2CCCC3)c1	4.5	-33.0	9.0	10603	15.7	7.0	10.2
CN(C)S(=O)(=O)N(CC(=O)Nc1cccc(F)c1)c1ccccc1	4.1	-7.8	-8.6	10559	8.1	1.4	-7.8
CCOC(=O)C1(c2ccccc2)CCN(CC(=O)Nc2ccc(C)cc2)CC1	·	-17.9	11.7	3404	·	·	·
O=C(NCC(c1cccs1)N1CCOCC1)c1cc(-c2ccc(F)cc2)nc2ccccc12 (configuration not stated)	13.1	-7.1	-9.8	4356	-10.2	0.6	6.8
Cc1[nH]n(-c2ccc(C(=O)O)cc2)c(=O)c1CCO	-2.0	-22.1	·	4595	-3.5	12.9	-1.8
O=C(Nc1cc(S(=O)(=O)N2CCOCC2)ccc1N1CCOCC1)c1ccc(Cl)nc1	2.2	-2.4	10.9	3749	-10.3	10.3	-5.3
COC(=O)Nc1cc(C)nc2ccccc12	2.2	-13.9	10.5	2296	8.1	9.0	3.7
NC(=O)N/N=C/c1coc2ccc(O)cc2c1=O	·	-24.2	1.1	4367	·	·	·
Cc1cccc2sc(NS(C)(=O)=O)nc12	4.0	-17.1	2.6	4542	9.2	-1.3	3.4
CCn1nc(C)c(Br)c1-c1nc(-c2cccc(C)c2)no1	-7.0	·	-14.6	·	7.7	3.5	9.0
COc1cc(/C=C2/C(=O)N(c3ccc(Br)cc3)N=C2C)cc(OC)c1OC	5.2	-15.5	25.0	2987	6.6	2.7	8.4
CC(C)N1CCc2c(sc(NC(=O)c3nc4ccccc4s3)c2C(N)=O)C1	3.6	-1.8	-4.8	4321	22.6	13.3	8.2
CC(C)c1ccc(OCC(=O)NC2CCCC2)cc1	1.7	-8.9	0.5	5327	4.2	11.3	8.1
Cc1ccc(/C=N/NC(=O)CNC(=O)Cc2ccccc2)o1	·	-7.5	-3.0	2438	·	·	·
COc1cc(C(=O)N/N=C(\C)Cn2nc([N+](=O)[O-])cc2C)ccc1O	·	-14.7	3.6	2069	·	·	·
O=C(NCc1cccnc1)NC1(c2ccccc2)CC1	2.2	2.6	1.2	4239	5.8	1.9	2.1
COc1ccccc1N1CCN(C2CC(=O)N(c3ccc(Cl)cc3)C2=O)CC1 (configuration not stated)	4.0	-39.2	-7.4	3752	7.9	0.4	7.4
O=c1/c(=C/c2ccc([N+](=O)[O-])cc2)sc2n1CCCN=2	·	-38.3	-2.2	2507	·	·	·
O=C(NN=Cc1ccccn1)c1ccc(NC(=O)c2ccc(F)cc2)cc1	-2.3	·	·	·	4.5	2.6	-5.4
Cc1cc2nc(=O)c(/C=C3\C=Nc4ccccc43)c(N)n2o1	4.0	·	4.2	4446	10.8	1.6	-6.9
O=c1c2c3c(sc2ncn1N=Cc1ccc([N+](=O)[O-])o1)CCCC3	40.2	·	·	·	·	·	86.5
CCCCC(=O)Nc1cc(OCC)c(NC(=S)NC)cc1OCC	7.1	-22.8	3.4	4244	0.9	-2.5	-2.2
C/C(CC(=O)Nc1ccc(N(C)C)cc1)=N\NC(=O)c1ccc(C(C)(C)C)cc1	·	-24.3	9.0	3301	·	·	·
CCOC(=O)C1C2COc3ccc(C)cc3C2N2C(=O)c3ccc(F)cc3NC(=O)[C@@]12C (some centres not stated)	8.1	·	·	·	17.3	11.9	8.2
Fc1cccc(C=NNc2nncc3ccccc23)c1	4.1	·	·	·	9.1	8.1	7.7
CC1(C)COCN1C(=O)c1ccc(C#N)cc1	6.5	-6.3	8.0	3438	9.0	7.0	10.2
Cc1ccc(C(=O)NCCN2CCOCC2)c(Cl)c1	·	-16.6	7.5	3587	·	·	·
CCCCc1nnc(SC(C)C(=O)Nc2nccs2)n1C (configuration not stated)	0.0	-14.7	0.5	5056	0.6	-0.1	0.8
COc1ccc(CCNC(=O)C2CCN(S(=O)(=O)c3ccc(SC)cc3)CC2)cc1	0.3	-5.9	-16.1	3617	-2.5	5.0	4.7
COc1cc(/C=C2/NC(=O)N(CC(=O)Nc3ccc(C)cc3)C2=O)ccc1Oc1ccc([N+](=O)[O-])cn1	5.9	-24.8	3.0	4547	-1.6	2.4	4.5
